Screening results from PubChem.
Polio RdRp inh: poliovirus RdRp elongation inhibitors, primary screen, biochemical, fluorescence polarization, total intensity. poliovirus polymerase elongation; stronger effect = lower value. % elongation, % (compound at 16.7 µg/mL). 150,000 compounds, 0.66% hits. AID 588519, 2011; in the data active = % elongation below about 90%; note: some results filed as inactive read as strong as hits
Target sequence (P03300 1749-2209 limits assumed): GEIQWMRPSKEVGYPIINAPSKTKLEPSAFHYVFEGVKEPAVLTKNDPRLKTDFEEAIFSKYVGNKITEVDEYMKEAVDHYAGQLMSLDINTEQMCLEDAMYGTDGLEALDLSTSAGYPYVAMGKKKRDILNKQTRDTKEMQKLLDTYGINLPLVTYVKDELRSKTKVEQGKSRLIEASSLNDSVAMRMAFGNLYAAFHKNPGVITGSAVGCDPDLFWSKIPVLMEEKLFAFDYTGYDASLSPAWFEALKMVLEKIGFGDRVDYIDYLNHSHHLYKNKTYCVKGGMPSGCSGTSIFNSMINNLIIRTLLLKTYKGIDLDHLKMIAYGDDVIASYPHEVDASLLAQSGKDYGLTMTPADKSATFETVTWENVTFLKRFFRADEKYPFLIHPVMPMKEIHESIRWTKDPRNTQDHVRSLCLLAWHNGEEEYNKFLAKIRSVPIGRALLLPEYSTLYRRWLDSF
Polio RdRp inh intensity: second read-out of Polio RdRp inh, no call of its own (marks repeat the call); % elongation; measured here: total intensity read-out; formula for this scale not given here;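 total fluorescence in place of polarization; lower means less elongation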
Active calls of the source: *. Only part of the results is shown, so the mix of outcomes need not match the whole.

SMILES	Polio RdRp inh	Polio RdRp inh intensity
O=C(Cc1ccccc1)NC1CC(=O)N(c2ccccc2)C1 (configuration not stated)	104	107
COc1ccc(N2CCN(C(=O)c3cc4c(s3)-c3ccccc3OC4)CC2)cc1	106	104
Cc1ccc(NC(=O)NCCOCCn2c(=O)oc3ccccc32)cc1C	103	111
COc1ccc(CNC(=O)C(=O)NCC(c2ccco2)S(=O)(=O)c2ccc(Cl)cc2)cc1 (configuration not stated)	111	97
COc1cccc(CNC(=O)CCCN2C(=O)CSc3c2c(C)nn3-c2ccccc2)c1	110	108
Cc1ccc(S(=O)(=O)C(CNS(=O)(=O)c2ccc(F)c(C)c2)c2cccs2)cc1 (configuration not stated)	106	112
CCOc1ccc(-n2ccnc2SCC(=O)Nc2cccc3ccccc23)cc1	107	109
COc1cccc(C(c2sc3nc(-c4ccco4)nn3c2O)N2CCC(O)CC2)c1 (configuration not stated)	111	102
Cc1noc(C)c1S(=O)(=O)N(CC(=O)NCCc1ccccc1)c1ccc(C(C)C)cc1	103	106
O=C(c1ccc2c(Cl)c3c(nc2c1)CCCC3)N1CCN(c2cccc(Cl)c2)CC1	110	109
COc1c(C)cc(S(=O)(=O)NCCc2c(C)[nH]c3ccccc23)c(C)c1C	105	106
Cc1cc(C)cc(-n2c(SCC(=O)N3CCCCC3)nc3c([nH]c4ccccc43)c2=O)c1	110	111
Cc1ccc(NC(=O)Cn2c(=O)n(CCCCC(=O)NCCc3ccc(Cl)cc3)c(=O)c3ccccc32)cc1	113	113
Cc1oc2ncn(C)c(=O)c2c1C(=O)NCCCN1CCCCC1C (configuration not stated)	103	102
O=C(NCCc1ccccc1)c1cc(Sc2ccc(F)cc2F)nc2ccccc12	108	114
CCCCN(CC)C(=O)CCNS(=O)(=O)c1ccc2c(c1)c(=O)n(C)c(=O)n2C	113	112
CCOc1ccc(S(=O)(=O)Nc2ccc(-c3ccc(OC)nn3)cc2)cc1	112	107
COc1ccc(NC(=O)C2=C(C)Nc3ncnn3C2c2cccn2C)cc1 (configuration not stated)	111	112
Cc1cc(C)cc(NC(=O)CSc2nc3c([nH]c4ccccc43)c(=O)n2-c2ccc(F)cc2)c1	108	93
CCOC(=O)c1c(NC(=O)/C=C/c2ccc(OCC)c(OC)c2)sc2c1CCC2	96	100
COCC(=O)n1nc(-c2ccco2)nc1NCc1ccccc1Cl	112	112
Cc1nc(-n2nc(C)c(CCC(C)C)c2C)sc1C(=O)Nc1cccc(Cl)c1C	104	104
COc1ccc(C)cc1NC(=O)CN1CCCN(S(=O)(=O)c2ccc(Br)cc2)CC1	106	106
COc1ccc(-c2csc(-c3c(N)c(C(=O)c4ccccc4)n4ccccc34)n2)cc1	110	107
CCc1ccc(NC(=O)N2CCN(Cc3cc(=O)n4nc(-c5ccccc5OC)sc4n3)CC2)cc1	111	114
Cc1ccc(NC(=O)Cn2cc(S(=O)(=O)N3CCCC3)c(S(=O)(=O)N3CCCC3)c2)cc1F	105	95
Cc1ccccc1NC(=O)CN1C(=O)C2(SCC(=O)N2c2ccc(F)cc2)c2ccccc21 (configuration not stated)	106	104
CCCc1nnc(NC(=O)c2cc(=O)c3cc(C)c(C)cc3o2)s1	109	106
COc1ccc(NC(=O)C(=O)NCc2ccco2)cc1	101	101
CC1CCN(S(=O)(=O)c2nnc(NC(=O)c3cccc(Br)c3)s2)CC1	106	110
Cn1c(=O)c2nc(SCC(=O)Nc3ccc(OC(F)(F)F)cc3)n(C)c2n(C)c1=O	109	113
O=C(CSc1cn(CCNC(=O)c2ccccc2F)c2ccccc12)Nc1ccc(F)cc1	108	111
CCc1ccc(CNC(=O)c2cnc3sc(N4CCCCCC4)nn3c2=O)cc1	109	113
CCOc1ccc(NC(=O)c2sc(-n3nc(C)c(Cc4ccc(Cl)cc4)c3C)nc2C)cc1	102	100
Cc1cccc(Nc2nc(-c3ccccc3)c3cc(C)ccc3n2)c1	106	113
COc1ccc(CCNC(=O)c2cnc3sc(N4CCCCCC4)nn3c2=O)cc1OC	107	114
NC(=O)Cn1c(=O)n(-c2ccc(F)c(Cl)c2)c(=O)c2sc3ccccc3c21	104	107
COc1ccc(NC(=O)CCS(=O)(=O)c2cc3c4c(c2)CCN4C(=O)CC3)cc1OC	103	108
CCCSc1ncc(Cl)c(C(=O)Nc2c(C(=O)Nc3ccc(OC)cc3)oc3ccccc23)n1	112	112
CCCN1CCCc2cc(CN(CCCN3CCOCC3)C(=O)Nc3ccc(Cl)c(Cl)c3)ccc21	111	112
COc1cc(C)ccc1OCCn1c(-c2ccc(Cl)cc2)nc2ccccc2c1=O	107	108
CCn1cc(C(=O)N2CCN(c3cccc(Cl)c3)CC2)c(=O)c2cc(S(=O)(=O)N3CCOCC3)ccc21	104	104
Cc1c(C(=O)OCC2CCCCC2)[nH]c2c1C(=O)CC(c1ccc(F)cc1)C2 (configuration not stated)	103	97
COc1ccc(CNC(=O)CCCn2c(SCC(N)=O)nc3cc4c(cc3c2=O)OCO4)cc1	100	94
Cc1ccc(Cl)cc1Nc1nc2ccccc2n2c(C)nnc12	108	111
Cc1ccc(CNC(=O)CSc2c(C)cnc3c2c(=O)n(C)c(=O)n3C)cc1	105	98
Cc1ccc(N2C(=O)[C@@H]3CSC(c4ccc(F)cc4)N3C2=O)cc1 (some centres not stated)	102	103
CCOc1ccccc1NC(=O)CSc1nnc(CC)c(CC)n1	112	108
CC(=O)N1CCOc2cc(S(=O)(=O)NCc3ccc(C)cc3)c(C)cc21	105	110
COc1cccc(N2CCN(C(=O)CCCCCn3c(=O)[nH]c4ccccc4c3=O)CC2)c1	107	110
Cc1ccc(NC(=O)C(Cc2ccccc2)n2cccc2)cc1C (configuration not stated)	103	103
CCc1ccc(CNC(=O)CCSCc2ccccc2F)cc1	112	112
COc1ccc(Cl)cc1NC(=O)CSc1ccc(-c2sc(C)nc2C)nn1	110	114
Cc1cccc(-n2c(=O)c3c(c4cc(C)ccc4n3C)n(CC(=O)N3CCCC3)c2=O)c1	104	98
Cc1ccc(OCC(=O)Nc2ccc(Cl)cc2C(=O)c2ccccc2)cc1	99	109
COc1ccc(-c2noc(CC(=O)N(C)c3ccccc3F)n2)cc1	109	111
COc1cccc(-n2c(/C=C/c3cccc(C)c3)nc3ccccc3c2=O)c1	103	105
CC1CCCCN1CCCNC(=O)c1ccc2c(c1)sc1nc(-c3ccc(F)cc3)cn12 (configuration not stated)	101	100
CC(=O)N1CCC2(CC1)OC(=O)C(C)=C2C(=O)NCc1cccc(Cl)c1	108	114
CCOC(=O)c1ccccc1NC(=O)Cn1c(=O)n(Cc2ccccc2)c(=O)c2c(C)c(C)sc21	106	110
Next entries.
SMILES	Polio RdRp inh	Polio RdRp inh intensity
NC(=O)C1(N2CCCCC2)CCN(C(=O)Nc2ccc(F)cc2F)CC1	114	109
COc1cccc(Cc2nc3ccccc3nc2SCC(=O)NCCc2ccccc2)c1	103	101
Cc1ccccc1NC(=O)CCNC(=O)Cn1ccc2ccccc2c1=O	108	108
CCN(Cc1ccccc1)C(=O)Cn1c(=O)n(-c2cccc(C)c2)c(=O)c2c1c1cc(OC)ccc1n2C	107	110
O=C(CCCn1c(=O)c2cccn2c2cccnc21)NCc1ccc(F)cc1	108	98
O=C(NC(=O)c1ccccc1)Nc1ccc(-n2nc(C(F)(F)F)cc2C(F)(F)F)cc1	102	99
CCn1c(=O)c2cc(C(=O)Nc3cc(F)ccc3F)sc2c2ccccc21	101	104
Cc1nn(-c2ccc(F)cc2)c(-n2cccc2)c1C(=O)NCCc1ccc(Cl)cc1	103	107
Clc1ccc(CCNc2nc3cc(Cl)c(Cl)cc3n3cnnc23)cc1	109	109
Cc1ccc(-c2cc(NC(=O)COc3c(C)cc(C)cc3C)on2)cc1	108	103
Cc1ccc(NC(=O)Cn2c(-c3nonc3N)nc3ccccc32)cc1C	111	104
O=C(Cn1cnc2c(nc3n2CCCCC3)c1=O)Nc1ccc(F)cc1	109	113
CCOC(=O)C1CCC(CN(Cc2c(Cl)cccc2Cl)S(=O)(=O)c2ccc(F)cc2)CC1 (configuration not stated)	107	111
COc1ccc(N2CCN(c3nc4ccc(C(=O)c5ccccc5)cc4n4cnnc34)CC2)cc1	98	104
CCOC(=O)c1ccc(NC(=O)N2CC3CCCN3c3ccccc32)cc1 (configuration not stated)	111	112
Cc1ccccc1C(=O)c1cccn1CC(=O)NCc1cccc(Cl)c1	111	113
CCn1c2c(c(=O)n3ncc(C(=O)Nc4ccc(Cl)cc4C)c13)CN(Cc1ccc(OC)cc1)CC2	107	112
COc1ccc(C(=O)NCC(c2ccco2)S(=O)(=O)c2ccc(F)cc2)cc1 (configuration not stated)	104	103
O=C(NCc1ccc(F)cc1Cl)c1ccc(CSCc2ccccc2Cl)o1	117	119
COc1ccc(NC(=O)c2ccc(-c3nc(COc4ccccc4)c(C)o3)cc2)cc1	105	111

Structural class: those above containing a CF3 group (2)
SMILES	Polio RdRp inh	Polio RdRp inh intensity
Cn1c(=O)c2nc(SCC(=O)Nc3ccc(OC(F)(F)F)cc3)n(C)c2n(C)c1=O	109	113
O=C(NC(=O)c1ccccc1)Nc1ccc(-n2nc(C(F)(F)F)cc2C(F)(F)F)cc1	102	99

Next entries.
SMILES	Polio RdRp inh	Polio RdRp inh intensity
CCc1nc(SC)ncc1C(=O)N1CCN(c2cc(Cl)ccc2C)CC1	105	112
Cc1ccc(C)c(NC(=O)CSc2nc(-c3ccccc3)cc(=O)[nH]2)c1	103	105
CCOc1ccccc1N1CC(c2nc3ccccc3n2CCCOc2ccccc2OC)CC1=O (configuration not stated)	110	114
Cc1ccc2c(c1)-c1c(c(C(=O)N3CCN(c4cc(Cl)ccc4C)CC3)nn1C)CS2	104	113
CC(C)Oc1ccc(CNC(=O)Cn2c(-c3cccs3)cc3ccccc32)cc1	114	114
COCCCNC(=O)c1ccc(-n2c(-c3ccccc3)cc3c2CCCC3)cc1	105	110
Cn1cc(CCCC(=O)NCc2ccccc2Cl)c2ccccc21	113	114
COc1ccc(-c2nnc(SCC(=O)NCc3ccc(C)cc3)nc2-c2ccc(OC)c(OC)c2)cc1OC	109	104
Cc1ccc(Cl)cc1N1CCN(C(=O)c2cc(S(=O)(=O)N3CCC(C)CC3)cn2C)CC1	105	108
Cc1ccccc1Nc1cc(C(=O)NC2CCCC2)c2ccccc2n1	107	108
O=C(NCc1cccc(Cl)c1)C1CCCN(c2ncnc3onc(-c4ccc(F)cc4)c23)C1 (configuration not stated)	103	96
CCN(CC)C(=O)c1sc2c(c1C)c(=O)n(Cc1ccccc1)c(=O)n2Cc1ccccc1C	110	113
CC(C)Nc1nc2c(-c3cccc(Br)c3)nnn2c2ccccc12	105	110
O=C(Nc1sc2c(c1C(=O)Nc1ccc(Cl)cc1)CCCC2)c1cccs1	105	103
COc1ccccc1N1CCN(C(=O)c2ccc3c(c2)N(Cc2ccccc2)C(=O)c2ccccc2S3(=O)=O)CC1	107	112
Cc1nn(CC(=O)N2CCN(c3ccccc3F)CC2)c(=O)c2cccn12	109	102
COc1ccc(NC(=O)CCc2nc3cccnc3n2-c2ccccc2)c(OC)c1	106	115
CC1CCN(C(=O)CSc2c3c(nc4cc(Cl)ccc24)CCCC3)CC1	108	111
COc1cccc(-n2cc(C(=O)Nc3cc(C)c(Cl)cc3OC)c3ccccc3c2=O)c1	103	105
COc1cc(Cl)c(NC(=O)c2cc(CN3CCCC3)on2)c(OC)c1	105	103

Entries of single compounds, looked up by structure. Order of screens: Polio RdRp inh | Polio RdRp inh intensity
CCc1nc(SC)ncc1C(=O)N1CCN(c2cc(Cl)ccc2C)CC1 reads 105 | 112
Cc1ccc2c(c1)-c1c(c(C(=O)N3CCN(c4cc(Cl)ccc4C)CC3)nn1C)CS2 reads 104 | 113
Cc1ccc(Cl)cc1N1CCN(C(=O)c2cc(S(=O)(=O)N3CCC(C)CC3)cn2C)CC1 reads 105 | 108
COc1cc(Cl)c(NC(=O)c2cc(CN3CCCC3)on2)c(OC)c1 reads 105 | 103
CCOc1ccccc1N1CC(c2nc3ccccc3n2CCCOc2ccccc2OC)CC1=O (configuration not stated) reads 110 | 114

The listing picks up, starting 4 compounds before the break.
SMILES	Polio RdRp inh	Polio RdRp inh intensity
COc1ccc(NC(=O)CCc2nc3cccnc3n2-c2ccccc2)c(OC)c1	106	115
CC1CCN(C(=O)CSc2c3c(nc4cc(Cl)ccc24)CCCC3)CC1	108	111
COc1cccc(-n2cc(C(=O)Nc3cc(C)c(Cl)cc3OC)c3ccccc3c2=O)c1	103	105
COc1cc(Cl)c(NC(=O)c2cc(CN3CCCC3)on2)c(OC)c1	105	103
COc1cc2nc(Nc3cccc(F)c3)nc(N)c2cc1OC	106	110
CC(=O)N1c2ccc(S(=O)(=O)NCCC(=O)Nc3ccc(C)cc3Br)cc2CC1C (configuration not stated)	107	112
Cc1cccc(C)c1NC(=O)c1nc(S(C)(=O)=O)ncc1N(Cc1ccc(F)cc1)Cc1ccco1	100	98
COc1ccc(CNC(=O)c2cn(-c3cccc(OC)c3)c(=O)c3ccccc23)cc1	104	108
O=C(Nc1ccccc1)c1ccc(Cl)c(S(=O)(=O)Nc2ccccc2)c1	106	110
O=C(c1ccc2c(c1)N(Cc1ccccc1Cl)C(=O)c1ccccc1S2)N1CCCC1	104	105
Cc1cc(Nc2cccc(Cl)c2)nc2ccc(NC(=O)Cc3ccc(Cl)cc3)cc12	105	110
CC(=O)N1CCc2c(sc3c2c(=O)n(Cc2ccccc2)c(=O)n3Cc2ccccc2F)C1	100	104
COc1ccccc1N1CCN(c2nc3ccc(C)cc3nc2-n2nc(C)cc2C)CC1	103	113
CCN(CC)CCNC(=O)c1ccc2c(c1)sc1nc(-c3ccc(F)cc3)cn12	89*	78*
Cc1cc(C)cc(NC(=O)Cn2cc(C(=O)c3ccccc3)c(=O)c3ccc(C)nc32)c1	116	119
COc1cccc(N2CCN(C(=O)c3ccc4nc(N5CCC(C)CC5)sc4c3)CC2)c1	108	112
COc1ccc2c(C)c(CCC(=O)NCc3ccc(Cl)cc3)c(=O)oc2c1C	103	107
CCOC(=O)c1ccc(Nc2ncnc3c2cnn3-c2cccc(Cl)c2)cc1	110	115
CCOc1ccc(NC(=O)Cn2cc(C(=O)c3ccc(F)cc3)c(=O)c3cc4c(cc32)OCCO4)cc1	108	109
COc1ccc(NC(=O)c2ccc(NC(=O)CCS(=O)(=O)c3cccs3)cc2)cc1Cl	110	112
